Bioassay records: PubChem, National Center for Advancing Translational Sciences (NCATS)
Menin-MLL FL inh: qHTS Assay for Inhibitors Targeting the Menin-MLL Interaction in MLL Related Leukemias: Competition With Fluorescein Labeled MLL-derived Peptide | Fluorescence polarization, fluorescein-MLL peptide displacement from menin | FP activity change, % at 61.4 µM | 290,000 tested, under 10 active; inconclusive = falling polarisation curve, or a change in total fluorescence; inactive = total fluorescence flat and polarisation flat or rising; no compound was filed as active; the % refers to the polarisation; negative = inhibition;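 further: % of control where 0% means no effect; inhibitors lower the polarisation; unlabelled MLL peptide was the positive control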
TRPML1 ag: qHTS for Agonists of the Human Mucolipin Transient Receptor Potential 1 (TRPML1) | Mucolipin-1 (Homo sapiens), Q9GZU1 | TRPML1-expressing cells, Ca2+ dye fluorescence, FDSS; host cell line not named in the record; reference of the full effect not given here | activation, % (test concentration not listed) | hit rate 0.12% among 410,000 | AID 624414, 2012; in the data active = activation above about 50%; inconclusive = about 30% to 50%; inactive = below about 30%; further: 0% is about no effect; the text of the record puts the active cut at 80%
Target sequence (Q9GZU1 whole entry, looked up): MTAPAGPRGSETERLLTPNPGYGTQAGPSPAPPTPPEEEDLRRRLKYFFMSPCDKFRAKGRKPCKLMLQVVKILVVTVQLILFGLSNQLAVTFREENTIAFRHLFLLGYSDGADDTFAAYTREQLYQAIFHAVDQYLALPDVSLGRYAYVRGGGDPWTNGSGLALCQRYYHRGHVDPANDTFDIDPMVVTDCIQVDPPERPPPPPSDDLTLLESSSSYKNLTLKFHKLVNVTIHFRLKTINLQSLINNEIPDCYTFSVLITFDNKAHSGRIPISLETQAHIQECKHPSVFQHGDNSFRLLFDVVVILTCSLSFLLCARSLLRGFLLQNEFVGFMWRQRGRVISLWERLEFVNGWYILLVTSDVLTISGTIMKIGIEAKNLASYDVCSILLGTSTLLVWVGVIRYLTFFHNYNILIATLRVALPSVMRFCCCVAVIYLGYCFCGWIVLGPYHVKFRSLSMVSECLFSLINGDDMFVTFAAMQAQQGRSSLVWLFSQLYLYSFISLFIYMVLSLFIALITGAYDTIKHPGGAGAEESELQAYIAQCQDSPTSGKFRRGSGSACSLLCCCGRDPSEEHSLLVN
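TRPML1-DL cells, Tet-induced overnight (~16 h, 37 degrees C), loaded 45-90 min at room temperature with Ca8 no-wash calcium dye plus quencher. FDSS fluorescence: 10 s baseline, compound pin-transfer, 110 s agonist read, then EC80 54-4 (4uM final) and 110 s antagonist read.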
gsp agonist: qHTS for Agonist of gsp, the Etiologic Mutation Responsible for Fibrous Dysplasia/McCune-Albright Syndrome: qHTS; gsp mutant cells, cAMP HTRF, 30 min; control for the full effect not named in the record; Potency, µM (highest dose often 76.9 µM), for the others: top-dose activation (cAMP increase), actives largely listed as activators; hit rate 0.13% among 340,000; active = well fitted activation curve with a large enough effect; inconclusive = small, poorly fitted or top-dose-only effect, or another doubt; inactive = no such curve, though single readings can be large or run the other way; cell line not stated here;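 further: phosphodiesterase inhibitor Ro 20-1724 added with compounds to block cAMP breakdown; potency means the concentration at half of the fitted maximal effect; nearly all actives have a fitted effect of over 60% in size; about a fifth of the inactives were tested at one dose only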
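Cells in DMEM/10% FBS with G418 were pretreated with compounds in DMSO plus […] (300 uM stock) for 30 min at 37C. cAMP was measured by HTRF (cAMP-d2 plus anti-cAMP antibody-K) after 30 min at room temperature.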
gsp antag: qHTS for Antagonists of gsp, the Etiologic Mutation Responsible for Fibrous Dysplasia/McCune-Albright Syndrome: qHTS. gsp-mutant cells, cAMP HTRF, 30 min; control for the full effect not named in the record. Potency, µM (series often up to 76.9 µM), for inactives: top-dose activity change, negative = inhibition, hits mostly inhibitors. hit rate 0.4% among 340,000. AID 624288, 2012; active = falling curve of any shape with a large fitted effect; inconclusive = falling curve, mostly with a smaller effect; inactive = flat or rising curve; cell line not stated here;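 further: intracellular cAMP measured with PDE inhibitor Ro 20-1724 present during compound exposure; potency means the concentration at half of the fitted maximal effect; on the % scale 0 is the no-effect control and ±100 the full control effect; nearly all actives have a fitted effect of over 65% in size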
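Cells in G418 medium, seeded 16-24 h, 37C; buffer exchange to DPBS + 1 mM CaCl2, 0.5 mM MgCl2, 0.05% BSA; cpds in DMSO + […] (300 uM stock), 30 min 37C; HTRF cAMP detection.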
ClpP mod: qHTS Assay for Activators of ClpP; ATP-dependent Clp protease proteolytic subunit (Bacillus subtilis (strain 168)), P80244; purified B. subtilis ClpP, FRET peptide cleavage, 20 min; Potency, µM (highest dose often 57.5 µM), for inactives: top-dose activity change, negative = active; hit rate 1.9% among 340,000; AID 651965, 2013; active = well fitted falling curve with a large enough effect; inconclusive = small, poorly fitted or top-dose-only effect; inactive = no such curve, though single readings can be large or run the other way; further: potency means the concentration at half of the fitted maximal effect; the source files actives as falling curves though it sought activators and does not explain the sign; nearly all actives have a fitted effect of over 65% in size; many hits overshoot -100%
Target sequence (P80244 whole entry, looked up): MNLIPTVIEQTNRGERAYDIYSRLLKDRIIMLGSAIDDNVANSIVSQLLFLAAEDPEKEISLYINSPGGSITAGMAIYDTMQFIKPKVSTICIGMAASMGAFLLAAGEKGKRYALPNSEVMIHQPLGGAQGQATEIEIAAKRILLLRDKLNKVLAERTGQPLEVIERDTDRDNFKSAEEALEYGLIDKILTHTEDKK
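ClpP 10 microg/mL final, pH 8 Tris/KCl buffer with BSA, glycerol, Tween-20; compound pinned in; FRET-FV substrate; RT 20 min; Ex320/Em430; ΔFRET vs ADEP 5.8 microM, DMSO, no enzyme.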
TRPML1 inh: qHTS for Inhibitors of the Human Mucolipin Transient Receptor Potential 1 (TRPML1). Mucolipin-1 (Homo sapiens), Q9GZU1. AID 624415, 2012. hit rate 0.02% among 390,000. TRPML1-inducible cells, Ca2+ dye fluorescence, FDSS; hits give low values; inhibition of EC80 agonist-evoked calcium signal. activity change, negative = inhibition, % (no concentration beside the values); in the data active means activity change below about -50%; inconclusive means about -30% to -50%; inactive means above about -30%;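 further: stimulus is agonist 54-4 at its EC80 concentration; on the % scale 0 is the no-effect control and ±100 the full control effect; compound concentration not given in the record; the text of the record puts the active cut at -80%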
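Calcium fluorescence in TRPML1-DL cells induced overnight with Tet: a 110 s read after compound pin addition, then a 110 s antagonist read after challenge with 54-4 at 4 uM final (EC80).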
* hit, by the source's call; u = inconclusive; x = not tested or not shown; & = joins results of further samples; [ ] = dose if it differs, or a comment.

SMILES	Menin-MLL FL inh	TRPML1 ag	gsp agonist	gsp antag	ClpP mod	TRPML1 inh
Cc1cc(C(=O)NCCCN2CC(C)CC(C)C2)n(-c2ccccc2)n1 (configuration not stated)	-0.9	-0.2	-25.0%	9.2%	-3.0%	45.6
CCOC(=O)CCCc1c[nH]c2ccccc12	-1.0	2.1	-24.3%	-9.7%	-5.9%	6.3
CCCNC(=O)COC(=O)c1c2c(nc3ccccc13)CCC2	x	0.4	19.3%	-7.4%	x	30.8
CSc1ccc(/C=N/NC(=O)CN2CCN(Cc3ccccc3Cl)CC2)cc1	5.6	1.1	-1.5%	5.2%	-9.2%	-5.3
Cn1cnnc1SCC(=O)NCCC(c1ccccc1)c1ccccc1	-0.3	-0.8	-21.1%	-7.4%	1.2%	22.4
Cc1cc(C)cc(N)c1	x	0.0	x	4.2%	-0.5%	5.9
O=C(CCn1c(=S)oc2ccccc21)Nc1ccc2c(c1)OCCO2	-2.6	-0.2	-11.2%	4.5%	0.6%	5.1
Cc1oc(/N=C/c2ccc(Cl)cc2Cl)c(C#N)c1C	u	0.8	-25.9%	-12.5%	7.9%	1.8
Cc1nc(N2CCc3ccccc3C2)[nH]c(=O)c1Cc1ccccc1	1.1	0.4	1.6%	0.9%	x	5.0
O=C1C(C=NCc2cccnc2)=C(O)c2ccccc21	-0.5	-0.3	-3.0%	7.6%	-2.2%	7.8
COc1ccc(C(=O)NNC(=O)C(=O)Nc2cccc3ccccc23)cc1	0.1	0.5	-9.2%	1.3%	x	-8.6
COc1cccc(CN(CC(=O)NCc2ccccc2)S(=O)(=O)CCl)c1	x	-1.2&-0.7	u	0.1%	-1.3%&0.8%	-9.8
COc1cccc(C(=O)N(Cc2ccc3c(c2)OCO3)Cc2nc3ccccc3c(=O)[nH]2)c1	2.4	-0.7	-23.1%	-19.4%	-0.6%	9.4
COC(=O)Cc1c(C)nc2nc(Cc3ccccc3)[nH]n2c1=O	0.0	-0.4	-2.9%	1.3%	-3.6%	9.1
Cc1cc(C)c(C)c(SCC(=O)Nc2oc(C)c3c(C)n[nH]c(=O)c23)c1C	x	1.3	-46.1%[inhibitor]	-6.9%	-1.1%	22.2

Fetched by structure from the list above:
SMILES	Menin-MLL FL inh	TRPML1 ag	gsp agonist	gsp antag	ClpP mod	TRPML1 inh
CCOC(=O)CCCc1c[nH]c2ccccc12	-1.0	2.1	-24.3%	-9.7%	-5.9%	6.3
Cc1cc(C)c(C)c(SCC(=O)Nc2oc(C)c3c(C)n[nH]c(=O)c23)c1C	x	1.3	-46.1%[inhibitor]	-6.9%	-1.1%	22.2

More records.
SMILES	Menin-MLL FL inh	TRPML1 ag	gsp agonist	gsp antag	ClpP mod	TRPML1 inh
Cc1cccc(NC(=O)CN2C(=O)C(c3ccccc3)=NC23CCC(C)CC3)c1 (configuration not stated)	x	0.2	x	x	0.5%	1.2
N#Cc1ccccc1NC1=CC(=O)CCC1	-1.9	1.1	-8.7%	2.7%	-4.0%	-3.2
CCOc1ccc(S(=O)(=O)Nc2cccc(C(=O)NCC3CCCO3)c2)cc1 (configuration not stated)	x	-0.1	-4.5%	-0.5%	-0.5%	-6.0
O=C(c1ccco1)N1CCN(c2nc(C3CC3)nc3sc4c(c23)CCCC4)CC1	2.1	3.3	3.5%	u	-26.5%	56.8
O=C(O)CC1NCCc2ccccc21 (configuration not stated)	4.2	x	-6.5%	17.7%	0.6%	x
Cc1ccc(NC(=O)[C@@]2(CC(=O)O)CC(/C=C/c3ccccc3)=NO2)c(C)c1	-2.3	0.4	u	16.0%	1.2%	-13.5
CCCN1CCN(C(=O)C2CCN(c3nnc(C)c4c(C)n(-c5ccc(C)cc5)nc34)CC2)CC1	u	0.3	-2.1%	-11.1%	u	12.9
C=CCOc1ccc(C2/C(=C(/O)c3ccc(OC)cc3)C(=O)C(=O)N2CCN2CCNCC2)cc1 (configuration not stated)	0.5	-0.8	u	7.3%	x	-0.7
COc1ccc(-c2csc(NC(=S)NC(=O)/C=C/c3ccco3)n2)cc1Br	1.7	1.1	-2.7%[15.4 µM]	24.2%	x	-16.6
N#Cc1c(-c2ccccc2)nc2n(-c3ccccc3)nc(C(=O)Nc3ccccc3)n2c1=O	0.9	-1.1	u	-12.0%	-9.8%	-4.5
CCCCCn1c(Br)nc2c1c(=O)n(CC(N)=O)c(=O)n2C	3.3	1.0	-8.0%	3.7%	-0.5%	-14.6
COc1ccccc1CNc1nc(-c2ccco2)nn1C(=O)c1cc(OC)c(OC)c(OC)c1	x	0.5	x	x	-12.4%	16.0
Cc1cc(C)nc(SCC(=O)NC2=NC(=O)C(C)S2)n1 (configuration not stated)	1.2	-0.2	3.4%	4.9%	-0.1%	-4.3
Cc1ccc(C2=C(CC(=O)O)C(=O)CC2)cc1	5.8	-0.6	4.8%	u	1.1%	-13.6
CCc1cccc(C)c1NC(=O)CN1CCCN(Cc2ccc(C)cc2)S1(=O)=O	x	2.3	x	x	2.5%	26.6
CCc1ccc(N2CC(C(=O)OCC(=O)NNC(=O)c3ccccc3)CC2=O)cc1 (configuration not stated)	x	0.6	-15.9%	-5.6%	1.2%	-3.8
CCCN(C(=O)COC(=O)c1nc2nc(C)cc(C)n2n1)C1CCS(=O)(=O)C1 (configuration not stated)	x	1.0	-52.8%[inhibitor]	18.4%	1.3%	-10.2
CC(=NCCCn1ccnc1)c1c(O)n(Cc2ccccc2)c(=O)[nH]c1=O	-2.4	-0.6	-25.3%	-4.7%	0.6%	2.0
CCNC(=O)CSc1nc(-c2ccccc2)cs1	-2.3	0.6	-8.0%[15.4 µM]	7.1%	x	-5.7
COc1ccccc1CNC(=O)C1CCN(S(=O)(=O)Cc2ccccc2)CC1	x	-0.4	x	x	1.2%	-26.4
O=C(COC(=O)Cc1ccccc1[N+](=O)[O-])Nc1nnc(-c2ccccc2)o1	x	3.3	-25.5%[15.4 µM]	-14.8%	x	-15.6
O=c1c2ccccc2nc2sc3ccccc3n12	-1.4	-1.0	16.8%	5.4%	u	-10.8
COc1ccc(OC)c(NC(=O)CSc2ccc(-c3sc(C)nc3C)nn2)c1	x	4.8	x	x	1.8%	54.9
CCOc1ccc(S(=O)(=O)Nc2ccc(C(=O)N3CCCC3)cc2)cc1C(N)=O	x	-0.4	18.3%	12.8%	0.8%	5.9
COc1ccc(OC)c(S(=O)(=O)N(C)CC(=O)Nc2cc(Cl)ccc2OC)c1	0.1	1.0	21.8%	-26.0%	0.2%	1.1
CCN(C(=O)Cn1c(Cl)nc2c1c(=O)n(C)c(=O)n2C)C1CCCCC1	x	-0.6	-21.8%	-1.0%	1.4%	-7.6
COC(=O)c1c(NC(=O)c2cc3nc(-c4ccc(Br)cc4)cc(C(F)(F)F)n3n2)sc2c1CCCC2	x	1.8	x	x	u	17.9
Cc1n[nH]c(=O)c2c(NC(=O)CSc3nnnn3-c3ccc(O)cc3)oc(C)c12	x	-0.5	10.5%	4.1%	-1.3%	-2.2
Cn1c(-c2ccccc2)cnc1NCc1ccccc1O	x	-0.4	x	x	-24.3%	24.6
C#CC[N+]1(CC#Cc2ccc(C#CC[N+]3(CC#C)CCOCC3)cc2)CCOCC1	3.4	-0.2	5.4%	6.5%	-1.7%	31.8
O=C(CCS(=O)(=O)c1cccs1)Nc1ccc(C(=O)NCc2ccccc2)cc1	0.9	0.0	-30.6%[inhibitor]	-7.1%	-0.5%	22.3
O=c1[nH]c2cccc(F)c2n2cccc12	-3.6	-0.9	13.4%[15.4 µM]	12.3%	-6.3%	-3.9
N#CC1=C(N)OC2=C(C(=O)CCC2)C12CCN(C(=O)OCc1ccccc1)CC2	1.0	0.1	8.6%	4.8%	0.4%	-3.4
CN(C(=O)c1ccno1)c1nnc(-c2cccnc2)s1	5.8	-0.5	24.9%	-0.3%	126.3%	-3.0
CC(C)(C)C(=O)Nc1ccc(S(=O)(=O)Nc2nccs2)cc1	-25.4	0.1	3.4%	0.4%	-1.9%	10.6
COc1cccc(NC(=O)COC(=O)c2c(NC(C)=O)sc(C)c2C)c1	x	-0.1	-22.1%	13.6%	-1.5%	8.5
Cc1ccc(NC(=O)c2ccco2)c(NC(=O)COc2ccccc2)c1	-1.7	0.2	-1.2%	-14.8%	x	1.9
COC(=O)C(Cc1ccccc1)NC(=O)C(CC(C)C)NC(=O)OC(C)(C)C (configuration not stated)	4.6	2.2	18.4%	-0.4%	-1.4%	4.3
O=C(CCN1CCN(c2ccccc2)CC1)Nc1ccc(Cl)cc1	-2.5	-0.3	-19.5%	5.5%	-0.4%	-6.7
CN1CCN(C(CNC(=O)c2cccc(F)c2)c2ccc3c(c2)OCO3)CC1 (configuration not stated)	x	-0.2	x	x	0.0%	-14.9
COc1ccc(C2CC(O)(c3ccccc3)Oc3cc(C)cc(C)c32)cc1 (configuration not stated)	3.4	1.5	x	x	x	9.7
Cc1ccc(N2CCN(C(=O)c3ccc4c(Cl)c5c(nc4c3)CCCC5)CC2)c(C)c1	x	-0.8	x	x	1.3%	-10.1
O=C(CCc1ccccc1)NCC(=O)N/N=C/c1ccc(O)cc1O	0.0	-0.8	23.9%	4.8%	-12.0%	-9.7
C[C@@H]1CCC(=O)N(CC[C@H](Oc2ccccc2)c2ccccc2)CC1	0.2	1.5&1.5	17.3%	-16.0%	-0.1%&-0.1%	32.9
O=C(O)CCC(CNS(=O)(=O)c1ccccc1)C(F)(F)F (configuration not stated)	-4.3	0.4	-9.9%[15.4 µM]	1.9%	x	-5.8
COc1ccccc1CN1C(=O)CN(C2CCCCCC2)C(=O)C1c1ccc(C)cc1 (configuration not stated)	x	-0.4	x	x	1.0%	5.8
CCN(C(=O)c1nn(-c2ccc(OC)cc2)c(=O)c2c1c1ccccc1n2C)c1ccc(OC)cc1	-6.7	1.0	34.4%	-3.2%	x	8.2
CCOc1ccccc1NC(=O)C(NCC1CCCCC1)c1ccccc1 (configuration not stated)	3.6	3.4	-6.8%	-3.0%	-1.3%	-5.9
O=C(/C=C/c1ccccc1)Nc1nnc(-c2ccco2)o1	-0.9	-1.0	-16.6%[15.4 µM]	7.7%	-2.7%	12.0
